Screening data as filed in PubChem.
miR-21 FLuc: qHTS Assay for Modulators of miRNAs and/orActivators of miR-21 | 340,000 tested, under 10 active | Potency, µM (titrated, usually from 38.3 µM), for inactives: at the highest dose reporter change, positive = more light | HeLa miR-21 FLuc reporter, luciferase, 48 h; active = well fitted rising curve with a large enough effect; inconclusive = small, poorly fitted or top-dose-only effect; inactive = no such curve, though single readings can be large or run the other way;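 further: % of control where 0% means no effect; miR-21 action dims this reporter so a rising signal means less miR-21 action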
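HeLa cells stably expressing CMV-driven firefly luciferase with a downstream miR-21 binding sequence, endogenously expressing miR-21, were treated with titrations (up to about 40uM final) for 48 hours at 37 degree Celsius. Luciferase luminescence was read after lysis.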
The depositor's hits bear a star; ? = inconclusive. An excerpt (hit frequency here may not be typical).

#	molecule	miR-21 FLuc
1	C#CCSc1nc2sc3c(c2c(=O)n1-c1cccc(OC)c1)CCN(C(C)=O)C3	-17.7%
2	Cc1ccc(Cl)cc1NC(=O)C1CCN(S(=O)(=O)c2cccc3nonc23)CC1	-6.1%
3	Cc1ccc(C)c(CN2C(=O)CSc3ccc(C(=O)NCc4ccccc4)cc32)c1	-2.1%
4	CCCCOc1ccc(OC(=O)c2sc3ncn(Cc4cccc(F)c4)c(=O)c3c2C)cc1	-2.9%
5	COc1ccccc1CCNC(=O)C(=O)NCC(c1cccs1)S(=O)(=O)c1cccs1 (stereo not drawn)	10.9%
6	CCOc1ccc(/C=C/c2nc(C#N)c(N3CCC(C)CC3)o2)cc1	?
7	CCc1ccc(NC(=O)CN2C(=O)c3ccccc3Sc3ccc(C(=O)N4CCCC4)cc32)cc1	-1.3%
8	COc1cc(C(=O)NCC(c2ccc(N(C)C)cc2)N2CCc3ccccc32)cc(OC)c1OC (stereo not drawn)	3.9%
9	COc1ccc(N2CCN(S(=O)(=O)c3ccc4c(c3)C(C(C)C)C(=O)N4)CC2)cc1 (stereo not drawn)	14.6%
10	COc1cccc(-n2cc(C(=O)NCCc3cccc(C)c3)c3ccccc3c2=O)c1	-31.1%
11	O=C(Cn1nc(-c2ccc(Cl)cc2)ccc1=O)NCCc1ccccc1	1.3%
12	Cc1ccc(NC(=O)c2cnc(SCC(=O)N3CCOCC3)n(C)c2=O)cc1C	-24.1%

(cont.)
#	molecule	miR-21 FLuc
13	COc1ccccc1N1CCN(c2ccc(-c3nc(-c4ccccc4C)no3)cc2[N+](=O)[O-])CC1	-6.4%
14	COCc1cc(C)nc2sc3c(=O)n(-c4ccccc4C(F)(F)F)nnc3c12	-0.4%
15	COc1cccc(-c2cn3c(n2)sc2cc(C(=O)NC4CCCCC4)ccc23)c1	2.9%
16	Cc1ccc(NC(=O)CCc2nnc3n(CC(C)C)c(=O)c4ccccc4n23)cc1C	-1.1%
17	COCCCn1c(=N)c(C(=O)NC2CCCC2)cc2c(=O)n3cccc(C)c3nc21	7.0%
18	O=C(Cn1c(=O)c2ccccc2n2nncc12)Nc1cccc(F)c1	-1.0%
19	Cc1ccc(-c2nc(C)c(CCNC(=O)C(=O)Nc3ccc4c(c3)OCO4)s2)cc1	-25.9%
20	CCCCNc1nc(Oc2ccc(=O)[nH]n2)nc(N(C)C)n1	-1.6%
21	N#Cc1nc(-c2ccc(COc3ccccc3)o2)oc1NCc1cccnc1	1.3%
22	CCN(CC)S(=O)(=O)c1ccc2oc(C(=O)Nc3ccc(Br)cc3F)c(C)c2c1	-2.3%
23	C=Cc1ccc(Cn2c(=O)n(-c3cccc(Cl)c3)c(=O)c3c4c(sc32)CN(C(C)=O)CC4)cc1	3.9%
24	COc1ccccc1CNC(=O)CCn1c(=O)c2ccccc2n(CC(=O)Nc2cccc(Cl)c2)c1=O	-4.1%

Further structures follow.
#	molecule	miR-21 FLuc
25	O=C(CCSCc1ccccc1F)N1CCN(c2ccc(Cl)cc2)CC1	-6.1%
26	Cc1cccc(CNC(=O)c2oc3c(c2C)-c2nn(Cc4cccc(Cl)c4)cc2CC3)c1	-33.3%
27	COc1ccc(NC(=O)CSc2nnc(-c3cccs3)o2)cc1	-58.4%
28	Fc1ccccc1-c1n[nH]c(=S)n1C1CC1	10.8%
29	CCc1ccc(NC(=O)C(=O)NCCc2sc(-c3ccc(C)cc3)nc2C)cc1	-0.1%
30	Cc1c(CNC2CCCCC2)c(C(=O)O)c(C)n1Cc1c(F)cccc1Cl	-5.1%
31	Cc1csc2nc(COc3ccc(NC(=O)c4ccccc4F)cc3)cc(=O)n12	0.9%
32	Cc1cc(C)c2nc(NC(=O)c3ccc(S(=O)(=O)N4CCCC4)cc3)sc2c1	13.4%
33	COc1cccc(NC(=O)Nc2cc(-c3cn4cccnc4n3)ccc2C)c1	-46.8%
34	COc1ccccc1N1CCN(S(=O)(=O)c2c(C)nc3sccn3c2=O)CC1	-4.4%
35	COc1ccc(C2C(=O)N(C3CCCCCC3)CC(=O)N2Cc2ccc(C)cc2)cc1 (stereo not drawn)	2.9%
36	Cc1ccc2nc(-c3ccc(Cl)c(NC(=O)c4ccc(Br)o4)c3)oc2c1	-30.8%

Look-ups from the results shown:
entry 36 in miR-21 FLuc → -30.8%
entry 28 in miR-21 FLuc → 10.8%

New compounds follow.
#	molecule	miR-21 FLuc
37	O=c1n(Cc2ccc(F)cc2)c2ccccc2c2nc(-c3ccccc3)nn12	-10.2%
38	COc1ccc(NC(=O)c2cc(S(=O)(=O)N3CCCCCC3)cn2C)c(OC)c1	0.3%
39	COc1ccccc1N1CCN(c2nc3c(S(=O)(=O)c4ccc(C)c(C)c4)nnn3c3ccc(Cl)cc23)CC1	1.7%
40	CCOc1cc(C2c3c(-c4ccccc4O)n[nH]c3C(=O)N2CCc2ccccc2)ccc1O (stereo not drawn)	1.9%
41	Cc1cc(C)cc(NC(=O)CCCc2nnc3n(CC(C)C)c(=O)c4sccc4n23)c1	-0.4%
42	CCC1CN(C(=O)N2CCC(C(=O)NCc3cccs3)CC2)c2cc(C)ccc2O1 (stereo not drawn)	0.0%
43	CCCN1CCN(CCNC(=O)Nc2cc(Cl)c(OC)cc2OC)CC1	9.2%
44	COc1ccc(Cn2ccc3nc(C)c(C(=O)N4CCN(c5ccc(F)cc5)CC4)cc3c2=O)cc1	0.3%
45	CCOc1ccccc1CNC(=O)C1CCN(S(=O)(=O)c2ccc3c(ccn3C)c2)CC1	-1.7%
46	COC(=O)c1cc(OC)c(OC)cc1NC(=O)c1ccc2c(c1)CCN2S(C)(=O)=O	-1.5%
47	COC(=O)c1cc2oc3ccccc3c2n1Cc1cc(C)ccc1C	-0.1%
48	COc1ccc(C(=O)N(Cc2cc(OC)c(OC)c(OC)c2)c2ccccn2)cc1	-1.5%

4 entries picked at random from those above:
#	molecule	miR-21 FLuc
41	Cc1cc(C)cc(NC(=O)CCCc2nnc3n(CC(C)C)c(=O)c4sccc4n23)c1	-0.4%
39	COc1ccccc1N1CCN(c2nc3c(S(=O)(=O)c4ccc(C)c(C)c4)nnn3c3ccc(Cl)cc23)CC1	1.7%
44	COc1ccc(Cn2ccc3nc(C)c(C(=O)N4CCN(c5ccc(F)cc5)CC4)cc3c2=O)cc1	0.3%
46	COC(=O)c1cc(OC)c(OC)cc1NC(=O)c1ccc2c(c1)CCN2S(C)(=O)=O	-1.5%

Following part:
#	molecule	miR-21 FLuc
49	COc1ccc(NC(=O)CN2C(=O)CCc3cc(S(=O)(=O)N4CCOCC4)ccc32)c(OC)c1	3.5%
50	CCc1cccc(CC)c1NC(=O)CN1C(=O)C(=O)c2ccccc21	22.4%
51	Cc1cc(OC(C)C(=O)Nc2sc3c(c2C(N)=O)CCCC3)ccc1Cl (stereo not drawn)	-2.2%
52	CCCOc1ccc(C2CC(=O)Nc3c2c(=O)n(C)c(=O)n3C)cc1OC (stereo not drawn)	-10.6%
53	COc1cccc(-n2c(=O)c3c4c(sc3n(Cc3ccc(F)cc3Cl)c2=O)CCCC4)c1	-11.4%
54	COc1ccc(-c2nnc(SCC(=O)Nc3ccccc3C)o2)cc1OC	1.2%
55	Cn1c(=O)c2c(-c3ccccc3Cl)n(-c3cc(Cl)ccc3O)cc2n(C)c1=O	20.8%
56	COc1ccc(CNCc2ccc(C(=O)O)s2)cc1	0.4%
57	CCOc1ccc(-n2c(SCC(=O)Nc3cc(C)ccc3C)nc3c([nH]c4ccccc43)c2=O)cc1	1.6%
58	Cc1ccc(NC(=O)Cn2c(=O)n(-c3ccccc3)c(=O)c3c4c(sc32)CCCC4)cc1	-1.9%
59	COC(=O)c1c(-c2cccs2)csc1NC(=O)c1ccc(Cl)cc1	-40.7%
60	COc1ccc(CNS(=O)(=O)c2ccc(-c3cc(C(F)(F)F)on3)s2)cc1OC	22.4%

Continuation:
#	molecule	miR-21 FLuc
61	Cc1cccc(OCCSc2nc3ccccc3n2CC(=O)N2CCCCC2)c1C	8.8%
62	COC(=O)COc1ccc(C2C(C(=O)OC)=C(C)NC3=C2C(=O)c2ccccc23)cc1OC (stereo not drawn)	-1.7%
63	CCOc1ccc(N(Cc2cc3cc(C)ccc3[nH]c2=O)C(=O)c2cccc(Cl)c2)cc1	-1.3%
64	COc1ccccc1Nc1cc(C(=O)NCc2cccs2)c2ccccc2n1	27.2%
65	Cc1ccc(-n2nc(C)c3c(C)cc(=O)n(CC(=O)NC(C)C)c32)cc1	-2.4%
66	COc1cccc(C2CC(=O)N(c3ccc(F)cc3)C3=C2C(=O)OC3)c1OC (stereo not drawn)	-7.5%
67	CCOC(=O)c1cnc2ccc(OCC)cc2c1N1CCN(c2ccccc2F)CC1	1.7%
68	O=C(CSc1nccn1Cc1ccccc1)NCc1ccco1	-25.5%
69	COc1cc(OC)c(NC(=O)Cn2ncn3c(cc4cc(C)ccc43)c2=O)cc1Cl	-8.9%
70	Cc1ccc(C)c(NC(=O)N2CCN(C(=O)c3nsc4ccccc34)CC2)c1	6.0%
71	O=c1cc(-c2ccccc2)n2c(SCc3ccc(F)cc3)nnc2[nH]1	-7.8%
72	CCOc1ccc(CNC(=O)Cc2ccc(NC(=O)N3CCSc4ncccc43)cc2)cc1	0.0%

The list continues:
#	molecule	miR-21 FLuc
73	COc1ccc(S(=O)(=O)N(CC(=O)N(C)Cc2ccccc2)c2ccc(Cl)cc2)cc1	4.4%
74	Cc1cccc(-n2c(=O)c3c(c4cc(C)ccc4n3C)n(CC(=O)Nc3ccc(C)c(C)c3)c2=O)c1	4.8%
75	O=c1c2sc3ccccc3c2n(Cc2ccc(F)cc2Cl)c(=O)n1Cc1ccccc1	-2.7%
76	O=C(NCc1cccc(Br)c1)C1CCCCN1S(=O)(=O)c1ccc(F)cc1 (stereo not drawn)	-6.3%
77	Cc1ccc2c(CC(=O)N(Cc3cccc(Cl)c3)C3CCS(=O)(=O)C3)coc2c1 (stereo not drawn)	4.7%
78	CCOc1ccc(CNC(=O)Cn2nc(N3CCN(c4ccccc4)CC3)ccc2=O)cc1	21.3%
79	CCC(Oc1ccccc1-c1nnc(-c2ccccc2)o1)C(=O)Nc1ccc(C(C)=O)cc1 (stereo not drawn)	-5.0%
80	COCCNc1oc(/C=C/c2ccc(F)cc2)nc1C#N	-56.6%
81	COc1ccc(Cn2c(=O)c3oc4ccccc4c3n(CC(=O)Nc3c(C)cccc3C)c2=O)cc1	-0.7%
82	CCc1ccc(NC(=O)Cn2nnc(C(=O)NCc3ccc(C)cc3)c2N)cc1	0.9%
83	CCN(CC)S(=O)(=O)c1ccc(C(=O)NC2CC(=O)N(c3ccc4c(c3)OCCO4)C2)cc1 (stereo not drawn)	-4.3%
84	Cc1nn(C(=O)c2ccc(Cl)cc2)c(C)c1S(=O)(=O)N1CCCCCC1	-0.3%

Next part.
#	molecule	miR-21 FLuc
85	O=C(Nc1cccc(Cl)c1)C1CCN(S(=O)(=O)Cc2ccccc2)CC1	11.7%
86	Cc1cn2c(=O)cc(COC(=O)c3cccc(NC(=O)COc4ccc(Cl)cc4)c3)nc2s1	-13.8%
87	CSc1ccc(CCNC(=O)NCc2noc3ccccc23)cc1	1.8%
88	CCN(CC)c1ncnc2c1cnn2-c1cc(Cl)ccc1C	0.1%
89	CC(C)CCN1C(=O)c2ccccc2CC1(C)C(=O)NC1CCC(C)CC1 (stereo not drawn)	-0.5%
90	CCOc1cccc(CNC(=O)c2ccc(N3CCCC3)c(NC(=O)NCc3ccc(F)cc3)c2)c1	7.7%
91	O=C1c2[nH]nc(-c3ccc(Br)cc3)c2C(c2cccc(O)c2)N1c1ccc(Cl)cc1 (stereo not drawn)	?
92	Cc1cccc(NC(=O)CSc2nc3ccc(NC(=O)COc4ccccc4C)cc3s2)c1	-3.4%
93	COc1ccc(CNC(=O)c2cnc3sc(N4CCCCCC4)nn3c2=O)cc1	-4.7%
94	COCCCNC(=O)CSc1nc2c(sc3ccccc32)c(=O)n1CCc1ccccc1	-2.7%
95	CCC(=O)Nc1nnc(S(=O)(=O)N(C)Cc2ccccc2)s1	-35.8%
96	Cc1ccc(CN2CCSc3ccc(C(=O)Nc4cc(C)cc(C)c4)cc32)cc1	-0.1%

Next part.
#	molecule	miR-21 FLuc
97	O=C(CCCCn1c(=O)[nH]c2ccsc2c1=O)N1CCN(c2cccc(Cl)c2)CC1	?
98	Cc1cc(C)c(S(=O)(=O)NCCc2cc3ccc(C)cc3[nH]c2=O)c(C)c1	-4.2%
99	CC(CNC(=O)c1ccc(Cn2c(SCc3ccccc3)nc3cccnc32)cc1)c1ccccc1 (stereo not drawn)	13.3%
100	CCOc1nc(NC(=O)NS(=O)(=O)Oc2ccc(Cl)cc2)nc(-c2ccccc2)n1	-26.9%
101	CCOc1ccc(CCNC(=O)C2Cc3ccccc3N2C(=O)CC)cc1OCC (stereo not drawn)	-2.5%
102	CCc1ccc(NC(=O)CC2C(=O)N(c3cccc(C)c3)C(=O)N2Cc2ccco2)cc1 (stereo not drawn)	21.4%
103	CCc1ccccc1N(C)C(=O)c1nn(-c2ccc(OC)cc2)c(=O)c2c1c1ccccc1n2C	6.2%
104	COc1ccc(C(=O)CN2C(=O)N(c3cc(C)ccc3C)S(=O)(=O)c3ccccc32)cc1	0.1%
105	CCc1ccccc1NC(=O)c1ccc2c(c1)N(Cc1cccc(Cl)c1)C(=O)c1ccccc1S2(=O)=O	-5.6%
106	COc1ccc(-c2ccnc3c2c(=O)n(C)c(=O)n3C)cc1OC	4.6%
107	Cc1ccc(CNC(=O)c2ccc(CSCc3ccc(C)cc3)o2)cc1	4.4%
108	CC(C)(C)C(=O)Nc1cccc(C(=O)OCc2cc(=O)n3nc(C4CCCCC4)sc3n2)c1	-6.4%

Arranged by molecular weight (lowest first): part of the list above.
#	molecule	miR-21 FLuc
98	Cc1cc(C)c(S(=O)(=O)NCCc2cc3ccc(C)cc3[nH]c2=O)c(C)c1	-4.2%
100	CCOc1nc(NC(=O)NS(=O)(=O)Oc2ccc(Cl)cc2)nc(-c2ccccc2)n1	-26.9%
99	CC(CNC(=O)c1ccc(Cn2c(SCc3ccccc3)nc3cccnc32)cc1)c1ccccc1 (stereo not drawn)	13.3%
